Vaccinia Venus: inhibitors of vaccinia virus (Venus reporter) | Vaccinia virus Venus reporter expression, fluorescence | Potency, µM (titrated, usually from 36.5 µM), for the others: top-dose activity change, negative = inhibition, actives largely listed as inhibitors | 330,000 compounds, 0.46% hits | AID 720580; active means well fitted inhibition curve with a large enough effect; inconclusive means small, poorly fitted or top-dose-only effect; inactive means no such curve, though single readings can be large or run the other way; tested in A549 cells; further: nearly all actives have a fitted effect of over 30% in size; inactives centre near -10
Vaccinia mCherry: vaccinia inhibition (mCherry reporter) | AID 720579 | Potency, µM (top dose mostly 36.5 µM), inactives show at the highest dose activity change, negative = inhibition, usual class: inhibitors | 310,000 compounds, 0.63% hits | Vaccinia virus mCherry reporter infection, fluorescence; about a quarter of the inactives have no number; active = well fitted inhibition curve with a large enough effect; inconclusive = small, poorly fitted or top-dose-only effect; inactive = no such curve, though single readings can be large or run the other way; tested in A549 cells; further: nearly all actives have a fitted effect of over 35% in size; inactives centre near -10
* marks the source's active call; other numbers are inactive results; i = inactive; ? = inconclusive; . = no result given; & = joins results of further samples; [ ] = dose if it differs, or a comment. On the % scale 0 is the no-effect control and ±100 the full control effect; potency means the concentration at half of the fitted maximal effect. Not a hit list; any-hit rate near 0.87%.

Start of the listing, in advance, 5 compounds:
smiles | Vaccinia Venus | Vaccinia mCherry
CCc1c(C)c2ccc(O)c(CN3CCCC3)c2oc1=O | -16% | -10%
Cc1ccc(-c2cn(C[C@H]3CC[C@@H]([C@@H]4CC[C@H](Cn5cc(-c6ccc(C)cc6)nn5)O4)O3)nn2)cc1 | -9% | i
COc1ccc(NS(=O)(=O)c2c(C)[nH]c(C)c2C(=O)N2CCCCC2)cc1Cl | -1% | -23%
COc1cccc(C2C(C#N)=C(N)OC3=C2C(=O)CCC3)c1OC(=O)c1ccco1 (stereo not given) | -13% | .
C=CCOc1cccc(/C=C2\C(=O)N(Cc3ccc(C)cc3)C(C)=C2C(=O)OC)c1 | -3% | i

The whole of this part, from the first entry:
smiles | Vaccinia Venus | Vaccinia mCherry
CCc1c(C)c2ccc(O)c(CN3CCCC3)c2oc1=O | -16% | -10%
Cc1ccc(-c2cn(C[C@H]3CC[C@@H]([C@@H]4CC[C@H](Cn5cc(-c6ccc(C)cc6)nn5)O4)O3)nn2)cc1 | -9% | i
COc1ccc(NS(=O)(=O)c2c(C)[nH]c(C)c2C(=O)N2CCCCC2)cc1Cl | -1% | -23%
COc1cccc(C2C(C#N)=C(N)OC3=C2C(=O)CCC3)c1OC(=O)c1ccco1 (stereo not given) | -13% | .
C=CCOc1cccc(/C=C2\C(=O)N(Cc3ccc(C)cc3)C(C)=C2C(=O)OC)c1 | -3% | i
O=c1[nH]c(=O)c2ccccc2o1 | -4% | -6%
COc1ccccc1Cn1c(CNS(=O)(=O)c2ccc(CC(C)C)cc2)nc2cccnc21 | -15% | -12%
COc1ccc(NC(=O)N2CCCC2C(=O)Nc2cccc(C)c2C)cc1 (stereo not given) | -3% | -16%
Cc1[nH]c(C(=O)N/N=C/c2ccc(C(=O)O)cc2)c(C)c1C(=O)N/N=C/c1ccc(C(=O)O)cc1 | -10% | -1%
Cc1cccc(C)c1NC(=O)COC(=O)c1cc(S(=O)(=O)Nc2ccc(Cl)cc2)ccc1O | -17% | -5%
COc1ccc(NS(=O)(=O)c2cc(NC(=O)c3cc(=O)c4ccccc4o3)ccc2OC)cc1 | -7% | -4%
COc1ccccc1C(=O)N1CCN(Cc2cc(=O)oc3cc(C)ccc23)CC1 | -7% | -8%
COc1ccc(S(=O)(=O)N2CCCC(C(=O)NCc3ccncc3)C2)cc1Cl (stereo not given) | -12% | -9%
CCC(=O)Nc1cccc(C2=NOC3(C2)C[C@@H](C(N)=O)N(C(=O)CC)C3)c1 (stereo not given in full) | -4% | -10%
Cc1ccccc1CN1C(=O)C(O)(CC(=O)c2ccccc2)c2cc(Cl)ccc21 (stereo not given) | -12%[7.34 µM] | -1%[7.34 µM]
CCOc1ccccc1NC(=O)CCNS(=O)(=O)c1cccc2nsnc12 | -4% | i
O=C(c1cc2cc(Cl)ccc2[nH]1)N1CCN(c2ccccn2)CC1 | -4% | -14%
CC(O)C(=O)NCCOCCOCCNC(=O)C(C)O (stereo not given) | -4% | .
CCOC(=O)CSc1nn(-c2ccccc2)c(=S)s1 | -6% | -23%
COc1cc(NC(=O)C2=C(N3CCOCC3)/C(=C\c3ccc(Br)cc3)CC2)cc(OC)c1OC | -27% | -26%
CCOC(=O)[C@]12CCCC=C1N(CCc1ccc(OC)c(OC)c1)C(=O)[C@H](CC(=O)NCCc1ccccc1OC)C2 | -15% | -16%
COc1ccccc1CNc1ncnc2c1cnn2-c1ccccc1 | -30% | i
Cc1cc(C)nc(SCC(=O)c2ccc(O)c(O)c2)n1 | -22% | ?
Cc1ccccc1CNC(=O)c1csc([C@H]2C[C@H](O)[C@@H](CO)O2)n1 | -9% | 29%

4 compounds out of the list, sorted by count of non-hydrogen atoms, falling:
smiles | Vaccinia Venus | Vaccinia mCherry
CCOC(=O)[C@]12CCCC=C1N(CCc1ccc(OC)c(OC)c1)C(=O)[C@H](CC(=O)NCCc1ccccc1OC)C2 | -15% | -16%
COc1ccccc1CNc1ncnc2c1cnn2-c1ccccc1 | -30% | i
Cc1cc(C)nc(SCC(=O)c2ccc(O)c(O)c2)n1 | -22% | ?
CCOC(=O)CSc1nn(-c2ccccc2)c(=S)s1 | -6% | -23%

Next records follow:
smiles | Vaccinia Venus | Vaccinia mCherry
O=P(OCC1CCCO1)(OCC1CCCO1)OCC1CCCO1 (stereo not given) | -11% | -13%
CCOC(=O)N1CCC(=NNC(=O)COc2cccc(C)c2)CC1 | 2% | -7%
CCOc1ccc(C(CC(=O)O)NC(=O)c2cccs2)cc1 (stereo not given) | -4% | -9%
N#CC(C#N)=C(C#N)c1ccc(Nc2ccccc2)cc1 | -2% | -12%
CCCCC1=NC2(CCCC2)C(=O)N1Cc1ccc(-c2ccccc2-c2nn[nH]n2)cc1 | -6% | -13%
CC1CCC(=NNS(=O)(=O)c2ccc([N+](=O)[O-])cc2)CC1 (stereo not given) | -3% | -3%
COC(=O)c1sc(N2C(=O)c3oc4ccccc4c(=O)c3C2c2cccs2)nc1C (stereo not given) | -10% | .
CC(=O)Nc1ccc(NC(=O)CSc2nc3ccccc3nc2N2CCOCC2)cc1 | -6% | -13%
COc1ccc(CN(C(=O)c2cc(=O)c3ccccc3o2)C2CCS(=O)(=O)C2)cc1OC (stereo not given) | 1% | -12%
C#CCOCCOCCOCCNc1nc(N2CCN(C(=O)[C@H](CCCCN)n3cc(C(N)CC(C)C)nn3)CC2)nc(N2CCN(C(=O)[C@H](CCC(=O)O)n3cc(C(N)[C@H](C)CC)nn3)CC2)n1 (stereo not given in full) | 3% | i
CC(C)(C)OC(=O)CNC(=O)c1[nH]cnc1C(=O)NCCCCCNC(=O)OC(C)(C)C | -29% | ?
COc1ccc(/C(N)=N/OC(=O)c2cccc([N+](=O)[O-])c2)cc1OC | 29% | -3%
COCCNC(=O)CSc1ncnc2sc(-c3ccccc3)cc12 | 1% | -3%
Cc1cccc(C)c1NC(=O)N1CCC(C(N)=O)(N2CCCCC2)CC1 | -5% | 6%
CC(C)Oc1ccc(CNC(=S)N/N=C/c2ccc([N+](=O)[O-])cc2)cc1 | -7% | -18%
CN(C)c1c(F)cc(C(=O)NC(=O)NCc2cccnc2)cc1F | -7% | -23%
CN(C)c1nc(N)c2nccnc2n1 | -1% | -8%
CC(C)NC(=O)C1CCCN(S(=O)(=O)c2ccc3c(ccn3C)c2)C1 (stereo not given) | 3% | -4%
CCOc1ccc2[nH]c(=O)c(CN(CCCO)C(C)=O)cc2c1 | -18% | .
CC(C)[C@H](NS(=O)(=O)c1cccc(C(F)(F)F)c1)C(=O)OCC(N)=O | -5% | i
Nc1nc(C(=O)N2CCOCC2)nn1C(=O)c1ccc(Cl)cc1 | 3% | -2%
CCc1ccc(C(=O)OCC(=O)c2c(N)n(CC(C)C)c(=O)n(C)c2=O)cc1 | -15% | -22%
N#CC(c1ccccc1)(c1ncc(C(F)(F)F)cc1Cl)N1CCOCC1 (stereo not given) | -10% | -14%
O=C(Nc1ccc(F)cc1)C(Sc1nnc2ccccn12)c1ccccc1 (stereo not given) | -7% | -10%
Cc1c(Cl)c(C(=O)NNC(=S)Nc2ccccc2)nn1C | -18% | -1%
CN(CCC#N)c1ccc(/C=C(\C#N)c2ccccn2)cc1 | -23% | -5%
CCn1nc(C)c(/C=N/NC(=O)c2ccoc2C)c1C | -1% | .
Cc1cccc(OCc2nc(CC(=O)Nc3ccc(C)c(C)c3)cs2)c1 | -10% | -19%
COc1cc(C=NNC(=S)Nc2ccc(S(=O)(=O)N3CCCCC3)cc2)cc(OC)c1OC | ? | ?
Cc1nc2ncnn2c(C)c1CCC(=O)NCCCN1CCN(c2cccc(Cl)c2)CC1 | -11% | -3%
Oc1ccc[n+](CC(O)c2ccccc2)c1 (stereo not given) | -5% | i
CNC[C@H](Cc1ccccc1)NC[C@@H](Cc1cccc2ccccc12)NCCc1ccc(C)cc1 | 14µM* | ?

More results.
Values run as follows: Vaccinia Venus, Vaccinia mCherry
Cn1c(SCC(=O)Nc2cccc(NC(=O)c3cccs3)c2)nnc1-c1ccncc1
  -10%, .
CCOc1ccc(NC(=O)c2c(C)oc3nc(C)nc(N4CCOCC4)c23)cc1
  -14%, i
CCc1nc2ccc(C(=O)Nc3ccc4c(c3)OCC(=O)N4)cn2c1N(CC)Cc1cccc(Br)c1
  ?, -7%
Cc1ccc(Nc2sc(C(=O)c3ccccc3)c(N)c2S(=O)(=O)c2ccccc2)c(C)c1
  -17%, -17%
CN(CC(=O)NCCc1ccc(F)cc1)Cc1ccccc1
  -4%, ?
CCC1(C)Cc2c(C#N)c(N)n(-c3ccccc3)c(=S)c2CO1 (stereo not given)
  -4%, -12%
Cc1ccc(-c2cc(C(=O)Oc3ccccc3)c3cc(C)ccc3n2)cc1
  0%, -4%
COc1ccc(-c2csc(N3CCN(Cc4ccc5c(c4)OCO5)CC3)n2)cc1
  -1%, -11%
Cc1ccc(S(=O)(=O)N2CCC(C(=O)NCCCOC(C)C)CC2)cc1
  -6%, -14%
CCOC(=O)C1CCCN(S(=O)(=O)c2ccc3[nH]c(=O)oc3c2)C1 (stereo not given)
  -1%, -13%
CCc1nnc2c(NCCc3ccc(OC)c(OC)c3)nc3ccccc3n12
  -16%&-8%, ?
CC(C)OC(=O)Cn1cnc2ccc(Br)cc2c1=O
  -8%, -19%
COC(=O)c1cccc(NC(=O)NC(=O)c2ccccc2Cl)c1
  -9%, -22%
c1ccc(COC2CCCN(Cc3nc(-c4cccs4)no3)C2)nc1 (stereo not given)
  -5%, -6%
O=C1NC[C@H](CCCCN2C[C@H](Cc3ccccc3)N(CCc3ccc(O)cc3)C(=O)C2=O)N(CCc2ccccc2)C1=O
  3%, -3%
CC(C)C(c1nnnn1C1CCCC1)N1CCN(c2ccccc2F)CC1 (stereo not given)
  -14%, .
Cc1nc2cc(C(F)(F)F)ccc2n1CCNc1nc(-c2ccc(F)cc2)cs1
  -14%, ?
CCOC(=O)CSc1nnc(-c2ccc([N+](=O)[O-])cc2)o1
  5%, i
CC(=O)Oc1ccc(-c2ccc(C(=O)Nc3cccc(S(=O)(=O)N4CCOCC4)c3)cc2)cc1
  ?, 16µM*
COc1ccccc1N1CCN(C(=O)c2ccc3[nH]c4c(c3c2)CCCC4)CC1
  ?, -27%
CCO[C@@H]1OC(C(N)=O)=C[C@H](C2CC2)[C@H]1CCCO
  -9%, i
O=C(Nc1sc(-c2ccccc2)cc1C(=O)O)c1ccccc1
  -10%, ?
Cc1nn2cc(-c3ccc(N)cc3)nc2s1
  -10%, -19%
COC(=O)C(Cc1ccccc1)NC(=O)c1cccc(S(=O)(=O)N(C)C)c1 (stereo not given)
  1%, 1%
Cc1ccc(-c2nc(SCC(=O)N(C)c3c(N)n(Cc4ccccc4)c(=O)[nH]c3=O)n[nH]2)cc1
  -5%, i
CCC(CC)c1nnc(NC(=O)c2cccc(S(=O)(=O)N3CCOCC3)c2)s1
  -18%, -26%
CCOc1ccc(NC(=O)c2cc(C)nc3c2c(C)nn3-c2cccc(F)c2)cc1
  0%, 7%
Cc1ccc(S(=O)(=O)CC(=O)Nc2nnc(C)s2)cc1
  -10%, 0%
Cc1onc(-c2ccccc2)c1C(=O)Nc1ccc(S(=O)(=O)NC2=NCCCCC2)cc1
  -7%, -17%
CCN(CC)CCCNC(=O)c1ccc2c(Cl)c3c(nc2c1)CCCC3
  -30%&-28%, -4%&-21%
CCCC(=O)N1c2ccccc2[C@@H](N(C(C)=O)c2ccccc2)C[C@H]1C
  -22%, -17%
O=C1NC2(CCCCC2)N=C1c1ccccc1
  -2%, -10%
COC(=O)c1ccc(Oc2nc(Nc3ccc(F)cc3)nc(N3CCCC3)n2)cc1
  -9%, -11%[1.46 µM]
O=c1[nH]c(N2CCOCC2)cc2ccccc12
  2%, i
CCOc1ccc(CCNC(=O)c2ccc(CS(=O)(=O)c3ccccc3C)o2)cc1OCC
  -25%, ?
COc1ccccc1NS(=O)(=O)c1cccc(NC(=O)Nc2cccc(Cl)c2)c1
  ?, ?
Cc1ccc(S(=O)(=O)N2CCCCC2)cc1NC(=O)C1CC1
  -16%, i
CCN1C[C@@H]2[C@@H]3C(=O)N(Cc4ccccc4)C(=O)[C@@H]3[C@](C)(C1=O)N2C(=O)c1ccc(Br)cc1
  1%, i
O=C(NN=C1CCN(Cc2ccccc2)CC1)C(O)c1ccccc1 (stereo not given)
  1%, -15%
COc1ccc(S(=O)(=O)N2CCCCC2)cc1NS(=O)(=O)c1ccccc1F
  -4%, -3%
O=C(COC(=O)c1ccc([N+](=O)[O-])cc1Cl)Nc1cccnc1Cl
  -8%, -7%
C[C@H](CO)N1C[C@H](C)[C@H](CN(C)S(=O)(=O)c2cccc(F)c2)OCc2ccccc2-c2c(n(C)c3ccccc23)C1=O
  ?, ?
O=[N+]([O-])c1ccc(COc2ccc(CN3CCCCC3)cc2)cc1
  -20%, ?
CCCCNS(=O)(=O)c1cccc(S(=O)(=O)N2CCCC2)c1
  -12%, .
O=C(NC1CCCCC1)C(c1ccccc1)N(Cc1ccco1)C(=O)Cn1cnc2ccccc21 (stereo not given)
  -10%, .
Cc1cnc(C)cn1
  -11%, -19%
Cc1c(C)n(C(=O)CN2CCN(c3ccccn3)CC2)c2ccccc12
  -17%, .
